Bioassay records from PubChem BioAssay.
StopGo FLuc = FMDV 2A StopGo reporter, firefly signal; HEK cells with a luciferase reporter of 2A StopGo recoding; Potency, µM (series often up to 57.5 µM), without a hit: top-dose signal change, negative = less light; 120,000 compounds, 0.23% hits; active = well fitted falling curve with a large enough effect; inconclusive = small, poorly fitted or top-dose-only effect; inactive = no such curve, though single readings can be large or run the other way; further: nearly all actives have a fitted effect of over 60% in size; overnight with compound
2A Renilla = FMDV 2A StopGo reporter, Renilla signal | Potency, µM (series often up to 57.5 µM), for inactives: at the highest dose signal change, negative = less light | 120,000 compounds, 0.32% hits | HEK cells with a luciferase reporter of 2A StopGo recoding; active means well fitted falling curve with a large enough effect; inconclusive means small, poorly fitted or top-dose-only effect; inactive means no such curve, though single readings can be large or run the other way; further: nearly all actives have a fitted effect of over 55% in size; overnight with compound
* = called active by the depositor; ? = inconclusive; [ ] = another dose, or the depositor's remark. On the % scale 0 is the no-effect control and ±100 the full control effect; potency means the concentration at half of the fitted maximal effect. A portion of the library (hit frequency here may not be typical).

SMILES	StopGo FLuc	2A Renilla
COc1ccc2[nH]cc(CCN(C(C)C)C(C)C)c2c1	-5%[27 µM]	-21%[129 µM]
O=C(Nc1ccc(F)cc1)OCc1cn(Cc2ccc(C(F)(F)F)cc2)nn1	2%	11%
O=C(CSc1nc2c(c(=O)[nH]1)CCC2)Nc1cccc(O)c1	-3%	-4%
Cn1nc(C(=O)NCC(c2ccco2)N2CCCC2)c2ccccc2c1=O (stereo not given)	16%	-8%
CC1=C(OC(=O)CCC(=O)OC2=C(C)C(=O)OC(c3ccccc3)C2(C)C)C(C)(C)C(c2ccccc2)OC1=O (stereo not given)	-2%	5%
COc1ccc(OC(=O)c2nc(SCc3ccc(C)cc3)ncc2Cl)cc1	4%	-10%
Cc1ccc2nc(-c3ccccc3)cc(C(=O)N3CCN(S(=O)(=O)c4c(C)noc4C)CC3)c2c1	47%[activator]	11%
Cc1ccccc1C(=O)/C=C/c1cccnc1	?	?
Cn1c(=O)[nH]c(=O)c2c1nc(NCCc1ccccc1)n2CCO	12%	21%
CCCCN=C1NN=C(c2c[nH]c3ccccc23)C(C)S1 (stereo not given)	-13%	-14%

Part of the list above, with two lines to a compound:
Each structure is followed by: StopGo FLuc	2A Renilla
O=C(CSc1nc2c(c(=O)[nH]1)CCC2)Nc1cccc(O)c1
    -3%	-4%
Cn1nc(C(=O)NCC(c2ccco2)N2CCCC2)c2ccccc2c1=O (stereo not given)
    16%	-8%
CC1=C(OC(=O)CCC(=O)OC2=C(C)C(=O)OC(c3ccccc3)C2(C)C)C(C)(C)C(c2ccccc2)OC1=O (stereo not given)
    -2%	5%

(more compounds)
SMILES	StopGo FLuc	2A Renilla
CCOc1ccc(-c2cc(C(=O)NCc3ccccc3)c3c(-c4ccc(CC)cc4)[nH]nc3n2)cc1	-6%	8%
CC(Cc1ccco1)NC(=O)CCC1CCCO1 (stereo not given)	12%	4%
COc1cc(CNc2ccc(N3CCOCC3)c(C(=O)O)c2)cc(Cl)c1OC	-6%	5%
CC(=O)Nc1cccc(C(=O)NC2CCCC(C)C2C)c1 (stereo not given)	0%	19%
COC(=O)c1sc(S(=O)(=O)Nc2ccc(Br)cc2F)c(C(=O)OC)c1C	12%	0%
CC(C)C(=O)Nc1cccc(NC(=O)Nc2cccc(Cl)c2)c1	57%[activator]	35%[activator]
COc1ccc(-c2noc(CCC(=O)N(C)c3ccccc3C)n2)cc1	9%	18%
CC(Sc1ccccn1)C(=O)Nc1ccc(C(F)(F)F)cc1 (stereo not given)	0%	39%[activator]
CCn1nc(C(=O)NCc2ccccc2F)c2ccccc2c1=O	1%	36%[activator]
O=C(O)CCC(NC(=O)c1ccccc1)C(=O)O (stereo not given)	-8%	-10%[1.06 µM]
COc1cc(NS(=O)(=O)c2cc(Br)cc3c2N(C(=O)C2CC2)CC3)cc(OC)c1	24%	371%[activator]
C#CCOc1nc2c(c(=O)n(C)c(=O)n2C)n1Cc1c(Cl)cccc1Cl	2%	-6%
Cc1ccc2oc(=O)cc(CN3CCC(C)CC3)c2c1	105%[activator]	15%
CC(C)(C)NC(=O)CCSc1nc(-c2ccc3c(c2)OCO3)cc(C(F)(F)F)n1	2%	8%
CCn1c(=O)cc(OCC(=O)N2CCN(c3ccc(C(C)=O)cc3)CC2)c2ccccc21	-15%	-5%
O=C(Nc1cccc(C(F)(F)F)c1)c1cc2ccc3cccnc3c2[nH]1	-12%	-10%
CCCCc1oc2ccccc2c1C(=O)c1cc(I)c(OCCN(CC)CC)c(I)c1	-15%	-10%
CC(=O)N1CCC2(CC1)Oc1ccccc1C1CC(c3cccc(OC(F)F)c3)=NN12 (stereo not given)	1%	40%[activator]
Cc1cccc(CNC(=O)c2cnc3sc(N4CCCCCC4)nn3c2=O)c1	17%	-14%
COCCN(CC(=O)NC(N)=O)Cc1ccccc1	6%	5%
Oc1c(C(c2ccccc2F)N2CCN(c3ccccc3F)CC2)sc2nc(-c3ccco3)nn12 (stereo not given)	-12%	12%
COCCCn1c(SCC(=O)Nc2ccc(F)cc2)nc2c(sc3ccccc32)c1=O	-6%	-1%
NC(=O)/C(=C/c1ccc(O)cc1)NC(=O)c1ccco1	18%	8%
O=C(Nc1ccc(Cl)cc1Cl)C1CCCN(c2ncnc3nc[nH]c23)C1 (stereo not given)	-9%	-8%
Cc1ccc(CNC(=O)c2ccccc2NCC(=O)N2CC(=O)Nc3ccccc32)cc1	19%	31%[activator]
CCc1ccccc1NC(=O)Cc1ccc(NC(=O)N2CCCCc3ccccc32)cc1	-7%	0%
CC(C)CCNC(=O)Cn1nc(N2CCN(c3ccccc3)CC2)ccc1=O	-19%	-10%
O=C(Cn1nc(-c2ccccc2)c2cnc3ccc(F)cc3c21)NC1CCCC1	-9%	-8%
CCc1cccc(C)c1NC(=O)C1CCCN1S(=O)(=O)c1cccc2nsnc12 (stereo not given)	-17%	-3%
Cc1ccc2[nH]c3c(=O)n(CC(=O)N4CCN(c5ccccc5F)CC4)ncc3c2c1	-13%	-11%
CCNC(=S)Nc1ccc(C)cc1Cl	88%[activator]	17%
CCOc1ccccc1NC(=O)c1c(NC(=O)COc2ccccc2)sc2c1CCCCC2	21%	349%[activator]
CC(Oc1cccc(Cl)c1Cl)C(=O)NN (stereo not given)	10%	4%
O=C(COc1ccc2ccc(=O)oc2c1)NC(=O)NC1CCCCC1	2%	-4%
CCOc1ccc2c(=O)c(-c3ccc(OC)c(OC)c3)c(C)oc2c1	-20%	-29%
Cn1c(=O)c2c(ncn2CC(=O)NC2CCCC2)n(C)c1=O	-11%	-8%
COc1cc(OC)cc(-c2nc3n(n2)C(c2ccncc2)C2=C(CC(C)(C)CC2=O)N3)c1 (stereo not given)	4%	-6%
O=C(Cc1ccccc1)Nc1ccc2oc(-c3ccc(F)cc3)nc2c1	108%[activator]	10%
Cc1cccc(C(=O)Nc2ccc3oc(-c4ccncc4)nc3c2)c1	-14%	-2%
Cc1cccc(NC(=O)C2CCN(S(=O)(=O)c3cccc4nsnc34)CC2)c1C	-13%	-11%
COc1cccc(C(=O)Nc2ccc3oc(-c4cccc(I)c4)nc3c2)c1	28%	-3%
Cc1ccc2c(c1)C=C(C(=O)Nc1ccc3oc(=O)ccc3c1)C=CO2	11%	-7%
COc1ccc(-c2cc(C(=O)N3CCC(C)CC3)[nH]n2)cc1	0%	14%
O=C(Cn1c(SCC(=O)Nc2ccc(F)cc2)nc2ccccc21)NCc1ccc(F)cc1	-11%	25%
COc1ccccc1-n1c(C)c(C)c2c1ncn1nc(CSc3nc4ccccc4o3)nc21	?	?
CCOC(=O)c1[nH]c(C)c(CCC(=O)Nc2ccc(OC)c(OC)c2)c1C	-4%	1%
COc1cc(CNC2CCCc3ccccc32)cc(OC)c1 (stereo not given)	-7%	0%
CCC1CCCCN1C(=O)/C=C/c1cnc2ccccc2n1 (stereo not given)	137%[activator]	8%
COc1cccc(NC(=O)Cn2nc(-c3cccs3)c3ccccc3c2=O)c1	7%	-1%
COc1ccc(NC(=O)CC2C(=O)N(c3ccc(C)cc3)C(=O)N2C2CCCC2)cc1 (stereo not given)	0%	-9%
Other records:
SMILES	StopGo FLuc	2A Renilla
CC(C)(CC(=O)NCc1ccc(Cl)cc1Cl)CC1=NS(=O)(=O)c2ccccc2N1	?	?
Cc1ccc(NC(=O)c2cc(-c3cccnc3)nc3ccccc23)cc1	7%	23%
CC(C)CCN(C(=O)Nc1ccc(Cl)c(Cl)c1)C(C)c1cccs1 (stereo not given)	-11%	34%[activator]
O=C(CCC1CCCCC1)NCCc1cccc(Cl)c1	1%	18%
COc1ccc2cc(CNc3ccc(OC)c(OC)c3)c(=O)n(CC(=O)Nc3ccccc3F)c2c1	-5%	4%
Cc1cccc(CSc2nc3c(cnn3CCO)c(=O)[nH]2)c1	15%	5%
Clc1ccc(-c2ccc(CNC3CN4CCC3CC4)o2)c(Cl)c1 (stereo not given)	0%	-9%
CCOc1ccc(NC(=O)c2ccc(-c3cccc(Cl)c3C)o2)cc1	-11%	-7%
CN(C)c1ccc(CNC(=O)c2cccc(NC(=O)N3CCSc4ncccc43)c2)cc1	-17%	0%
COc1ccccc1/C=C/C=C(/C#N)C(=O)Nc1ccccc1C(=O)O	58%[activator]	?
Cc1ccc(NC2(c3ccccc3)C(=O)c3ccccc3C2=O)cc1F	6%	-3%
CCC(C)OC(=O)COc1ccc2c(=O)c(-c3ccccc3Cl)coc2c1 (stereo not given)	-2%	-11%
CCOC(=O)COc1ccc2c(=O)c(-c3ccc(OC)c(OC)c3)c(C(=O)OCC)oc2c1	-3%	-15%
CCC(=O)N1CCc2cc(S(=O)(=O)NC(Cc3ccccc3)C(=O)NCc3ccccc3OC)ccc21 (stereo not given)	-12%	125%[activator]
Cc1ccc(C)c(NC(=O)C2CCCN(c3nc4ccccc4s3)C2)c1 (stereo not given)	34%[activator]	-2%
COC(=O)c1sc2c(c1C)c(=O)n(-c1ccccc1)c(=O)n2CC(=O)Nc1cccc(C)c1	-22%	-22%
Cc1cccc(C(=O)Nc2ccc(CC(=O)N(C)C)cc2)c1	170%[activator]	5%
CN1CCN(C(=O)Cn2ccc3c(Cl)cccc32)CC1	17%	-17%
Cc1ccc(C)c(NC(=O)CCCc2ccccc2)c1	0%	7%
CCSc1nc2c(c(=O)[nH]1)C(c1ccc(C)o1)C1=C(CCCC1=O)N2 (stereo not given)	22%	5%
Cc1cccc(-c2nc(CS(=O)CC(=O)N3CCc4ccccc43)c(C)o2)c1 (stereo not given)	0%	5%
Cc1cccc(NC(=O)COc2ccc3c(=O)c(Oc4ccccc4)c(C)oc3c2)n1	3%	3%
CCN1CCN(CCNC(=O)c2c(C)nn(-c3ccc(F)cc3)c2-n2cccc2)CC1	-3%	-1%
COC(=O)c1ccc(CNC(=O)C(Sc2ccccc2)c2ccccc2)cc1 (stereo not given)	15%	-1%[1.06 µM]
CCOC(=O)C(=O)N1CCN(c2nc(C(C)C)c3c(c2C#N)CCCC3)CC1	-6%	5%
Cc1cccc(NC(=O)Cn2c(=O)oc3cc(S(=O)(=O)NC4CCCC4)ccc32)c1	?	311%[activator]
CNC(=O)c1ccc(-c2nc(CN3CCN(C(=O)Nc4ccc(Cl)cc4)CC3)c(C)o2)cc1	27%	-3%
c1ccc(-n2ncc3c(NC4CCCCCCCCCCC4)ncnc32)cc1	40%[activator]	11%
Cc1ccc(NC(=O)c2cnc(SCC(=O)Nc3cc(C)on3)n(C)c2=O)cc1	-2%	-4%
C=CCn1c(-n2nc(C)c(C)c2C)nc2c1c(=O)[nH]c(=O)n2C	13%	10%
Cc1ccc(Cn2c(CO)cnc2SCc2ccc(F)cc2)cc1	27%	?

Structures listed so far containing an aryl thioether with sulfur outside any ring (twelve):
SMILES	StopGo FLuc	2A Renilla
O=C(CSc1nc2c(c(=O)[nH]1)CCC2)Nc1cccc(O)c1	-3%	-4%
COc1ccc(OC(=O)c2nc(SCc3ccc(C)cc3)ncc2Cl)cc1	4%	-10%
CC(Sc1ccccn1)C(=O)Nc1ccc(C(F)(F)F)cc1 (stereo not given)	0%	39%[activator]
CC(C)(C)NC(=O)CCSc1nc(-c2ccc3c(c2)OCO3)cc(C(F)(F)F)n1	2%	8%
COCCCn1c(SCC(=O)Nc2ccc(F)cc2)nc2c(sc3ccccc32)c1=O	-6%	-1%
O=C(Cn1c(SCC(=O)Nc2ccc(F)cc2)nc2ccccc21)NCc1ccc(F)cc1	-11%	25%
COc1ccccc1-n1c(C)c(C)c2c1ncn1nc(CSc3nc4ccccc4o3)nc21	?	?
Cc1cccc(CSc2nc3c(cnn3CCO)c(=O)[nH]2)c1	15%	5%
CCSc1nc2c(c(=O)[nH]1)C(c1ccc(C)o1)C1=C(CCCC1=O)N2 (stereo not given)	22%	5%
COC(=O)c1ccc(CNC(=O)C(Sc2ccccc2)c2ccccc2)cc1 (stereo not given)	15%	-1%[1.06 µM]
Cc1ccc(NC(=O)c2cnc(SCC(=O)Nc3cc(C)on3)n(C)c2=O)cc1	-2%	-4%
Cc1ccc(Cn2c(CO)cnc2SCc2ccc(F)cc2)cc1	27%	?
